StopGo reporter: High Throughput Screening for Foot and Mouth Disease Virus Antivirals | 410,000 tested, 1.2% active | Potency, µM (top dose mostly 57.9 µM), without a hit: top-dose signal change, negative = less light | human cells with a luciferase reporter of 2A StopGo recoding; control for the full effect not named in the record; active = well fitted falling curve with a large enough effect; inconclusive = small, poorly fitted or top-dose-only effect; inactive = no such curve, though single readings can be large or run the other way; tested in HEK293T cells; note: % is set by controls: 0 for no effect and ±100 for the full control effect; nearly all actives have a fitted effect of over 45% in size; luciferase light after 4 h
NS1 function inh: qHTS Assay for Inhibitors of Influenza NS1 Protein Function. AID 2326, 2010. Potency, µM (top dose mostly 46.1 µM), for the others: at the top dose activity, positive = more growth. S. cerevisiae slowed by influenza A NS1, growth recovery by OD600. 270,000 tested, 0.4% active; active means well fitted rising curve with a large enough effect; inconclusive means small, poorly fitted or top-dose-only effect; inactive means no such curve, though single readings can be large or run the other way; note: nearly all actives have a fitted effect of over 50% in size
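Read-out: OD600 growth recovery of NS1-expressing budding yeast. Cells grown overnight at 30C in -URA glucose medium, washed, resuspended and diluted 1:100 in 2% galactose assay medium, pH 6.0. Same strain lacking NS1 served as positive control.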
Cruzain inh Det: qHTS Assay for Promiscuous and Specific Inhibitors of Cruzain (with detergent) | Cruzipain (Trypanosoma cruzi), P25779 | purified cruzain, Z-FR-AMC fluorescence, 0.01% Triton | Potency, µM, inactives show max response, negative = inhibition, hits mostly inhibitors | 200,000 tested, 0.43% active;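 note: plate controls were neutral wells for no effect and buffer without enzyme for full effect; nearly all actives have a fitted effect of over 40% in size; top concentration of the series not given in the record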
Target sequence (P25779 123-467 limits assumed): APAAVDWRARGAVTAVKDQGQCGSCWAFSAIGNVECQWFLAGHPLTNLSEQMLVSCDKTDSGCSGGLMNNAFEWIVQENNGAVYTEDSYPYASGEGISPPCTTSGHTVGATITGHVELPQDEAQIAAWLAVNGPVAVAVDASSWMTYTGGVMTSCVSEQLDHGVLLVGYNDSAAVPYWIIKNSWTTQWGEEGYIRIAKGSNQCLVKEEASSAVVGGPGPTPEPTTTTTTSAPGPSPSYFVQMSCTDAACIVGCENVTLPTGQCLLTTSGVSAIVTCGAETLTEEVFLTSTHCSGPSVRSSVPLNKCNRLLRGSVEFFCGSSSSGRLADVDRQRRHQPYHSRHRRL
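In this qHTS format, compounds are incubated with 1.5 nM cruzain for 15 min at room temperature before 2 uM Z-FR-AMC is added. Release of AMC is followed at 360/450 nm, and progress is taken as the 60 s fluorescence difference.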
SARS PLpro yeast: qHTS of Yeast-based Assay for SARS-CoV PLP; S. cerevisiae expressing SARS-CoV PLpro, growth rescue; control for the full effect not named in the record; 330,000 tested, 0.19% active; Potency, µM (titrated, usually from 32.9 µM), for the others: top-dose activity, positive = growth rescue; active means well fitted rising curve with a large enough effect; inconclusive means small, poorly fitted or top-dose-only effect; inactive means no such curve, though single readings can be large or run the other way; note: 0% is about no effect; nearly all actives have a fitted effect of over 55% in size; growth read by luminescence after 48 h
LASV entry inh: qHTS for Inhibitors of binding or entry into cells for Lassa Virus | Lassa virus pseudotype entry inhibition, cell reporter; control for the full effect not named in the record | Potency, µM (series often up to 37.9 µM), without a hit: top-dose activity change, negative = inhibition, actives largely listed as inhibitors | 300,000 tested, 1.2% active; active means well fitted inhibition curve with a large enough effect; inconclusive means small, poorly fitted or top-dose-only effect, or effect the other way; inactive means flat fitted curve, though single readings scatter; tested in HEK293 cells; note: % is set by controls: 0 for no effect and ±100 for the full control effect; nearly all actives have a fitted effect of over 50% in size; luciferase read-out
MARV entry inh: qHTS for inhibitors of binding or entry into cells for Marburg Virus. AID 540276, 2011. Marburg virus pseudotyped entry inhibition, cell reporter; control for the full effect not named in the record; about a third of the inactives were read at about 46 µM. Potency, µM (top dose mostly 37.8 µM), inactives show at the top dose activity change, negative = inhibition, usual class: inhibitors. 300,000 tested, 1.8% active; active = well fitted inhibition curve with a large enough effect; inconclusive = small, poorly fitted or top-dose-only effect, or effect the other way; inactive = flat fitted curve, though single readings scatter; tested in HEK293 cells; about a fifth of its hits are not listed in these tables; note: % is set by controls: 0 for no effect and ±100 for the full control effect; luciferase read-out
Cruzain noTriton: qHTS Assay for Promiscuous and Specific Inhibitors of Cruzain (without detergent). Cruzipain (Trypanosoma cruzi), P25779. purified cruzain, Z-FR-AMC fluorescence, no detergent. Potency, µM, for the others: max response, negative = inhibition, most hits filed as inhibitors. 200,000 tested, 2.3% active. AID 1476, 2009;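 note: plate controls were enzyme without inhibitor for no effect and buffer without enzyme for full effect; nearly all actives have a fitted effect of over 40% in size; top concentration of the series not given in the record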
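Detergent-free condition (0.00005% Triton X-100) in acetate buffer pH 5.5 with DTT. 1.5 nM enzyme and compound were pre-mixed 15 min, then 2 uM Z-FR-AMC substrate added; reaction progress from fluorescence change between first and third reads (60 s).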
RE007 growth inh: qHTS Assay for Inhibitors of the HIV-1 protein Vpr. 360,000 tested, 0.21% active. S. pombe RE007 Vpr strain, BacTiter-Glo ATP luminescence, 24 h; control for the full effect not named in the record. Potency, µM (doses to about 92.2 µM), without a hit: top-dose activity change, negative = less growth; active = well fitted falling curve with a large enough effect; inconclusive = small, poorly fitted or top-dose-only effect; inactive = no such curve, though single readings can be large or run the other way;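 note: % is set by controls: 0 for no effect and ±100 for the full control effect; nearly all actives have a fitted effect of over 50% in size; the assay follows cell death caused by Vpr and the record does not say whether a fall means rescue or toxicity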
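Fission yeast RE007 carrying one integrated HIV-1 vpr copy, seeded at OD 0.01 in PMG+AL medium with 23 nL pinned compound. Grown 24 h at 30 degrees; viability read by BacTiter-Glo luminescence after 5 min.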
Active calls of the source: *; ? = inconclusive; . = not tested or not shown; & = joins results of further samples; ! = a repeat was not active; [ ] = another dose, or the depositor's remark. Unless noted, calls come from the whole dose curve; as a rule, active = well fitted curve in the direction sought with a large enough effect; inconclusive = small, poorly fitted or top-dose-only effect, or another doubt; inactive = no such curve, though single readings can be large; an effect the other way counts as inactive or inconclusive. Potency is the fitted concentration of half-maximal effect.

SMILES	StopGo reporter	NS1 function inh	Cruzain inh Det	SARS PLpro yeast	LASV entry inh	MARV entry inh	Cruzain noTriton	RE007 growth inh
CC1=NN(C(=O)c2csc(C(C)C)c2)C(O)(C(F)(F)F)C1 (stereo not drawn)	-13%	7%	3.6%	-6%	-1%	?	6%	4%
CCOCCn1ccc2c(OCC(=O)Nc3cccc([N+](=O)[O-])c3)cccc2c1=O	-25%	.	-1.9%	.	12%[46.1 µM]	.	0%	.
COc1cccc(NC(=O)CN(C)C(=O)/C=C/c2cn(-c3ccccc3)nc2-c2cccs2)c1	-21%	.	.	-1%	?	?	.	4%
COc1ccc(CC(=O)NC(CC(=O)O)c2cccc([N+](=O)[O-])c2)cc1 (stereo not drawn)	13%	.	.	0%	-4%	?	.	1%
Cc1ccc(CN2CCN(/N=C/c3ccccc3)CC2)cc1	10%	0%	.	1%	?	-25%[46.1 µM]	.	-1%
COCCCNC(=O)CCCN1C(=O)c2cccnc2Sc2ccccc21	-27%	3%	.	-1%	.	.	.	6%
CCOC(=O)Cn1c(CN2CC(C)OC(C)C2)nc2c1c(=O)n(C)c(=O)n2C (stereo not drawn)	-21%	-37%	-1.4%	-4%	.	.	-7%	3%
CCN(CC)CCN(C(=O)CCS(=O)(=O)c1ccccc1)c1nc2cc(C)cc(C)c2s1	?	-16%	.	-10%	?	?	.	-1%
CCOC(=O)c1c(C)[nH]c(C(=O)OCC(O)=C(C#N)c2nc3ccccc3[nH]2)c1C	9%	.	.	.	?	?	.	-7%
CC1CCCN(CC(O)COCC2COc3ccccc3O2)C1 (stereo not drawn)	-15%	16%	5.6%	2%	-5%	33%	3%	0%
O=C(CSc1nc2ccc(Nc3nc(N4CCOCC4)nc(N4CCOCC4)n3)cc2s1)Nc1ccccc1F	-18%	12%	.	1%	.	.	.	9%
O=C(NCCC1CCCCN1S(=O)(=O)c1ccc(F)cc1)C(=O)NC1CC1 (stereo not drawn)	-16%	.	.	3%	2%	-17%	.	1%
COc1cc(CNC23CC4CC(CC(C4)C2)C3)ccc1OCc1ccccc1	-8%	.	.	-1%	20%[46.1 µM]	5µM*	.	5%
COc1ccccc1NC(=O)Nc1nnc(Cc2ccc(F)cc2)s1	-5%	10%	.	?	.	.	.	7%
CS(=O)(=O)C1=NN2C(=N)/C(=C\c3ccc(OCCOc4ccccc4)cc3)C(=O)N=C2S1	-25%	5%	.	1%	-2%[46.1 µM]	15%[46.1 µM]	.	-3%
CCOC(=O)c1sc(NC(=O)CSc2nnc(C(C)C)n2CC)nc1C	-12%	0%	0.8%	-6%	-20%	4%	27%	0%
CCCCCCCCOC(=O)c1cc([N+](=O)[O-])c(Sc2ncnc3nc[nH]c23)c([N+](=O)[O-])c1	?	.	.	.	11µM*	?	.	?
O=C(Cn1c(=O)n(-c2ccc(F)cc2)c(=O)c2sc3ccccc3c21)NC1CCCCC1	-1%	.	-0.8%	.	4%[46.1 µM]	12%[46.1 µM]	7%	.
Cc1ccc(-c2c(=O)n(O)c3ccccc3[n+]2[O-])cc1	0%	-3%	.	5%	23%[46.1 µM]	7%[46.1 µM]	.	-13%
CCN1CCCC1CNC(=O)c1cc(COc2ccc(C)c(C)c2)on1 (stereo not drawn)	10%	3%	.	0%	.	.	.	-1%
COc1c(OC(C)=O)ccc(/C=C/c2ccc3ccccc3n2)c1[N+](=O)[O-]	-55%	-13%	-5.0%	-21%	?	-26%	?	32%
CCCOc1ccc(C(=O)Nc2ccc3c(c2)OCCO3)cc1	-25%	-6%	.	-2%	?	?	.	44%
O=S(=O)(c1cccc2c(Cl)cccc12)N1CCCNCC1	0%&-17%	-11%	-7.4%&-14%	.	-9%	8.9µM*!	-5%&2%	.
CCOc1ccc(Nc2nc(Cc3nnc(SCC(=O)c4ccc(C)c(C)c4)o3)cs2)cc1	.	2%	1.9%	-4%	-25%	?	?	6%
CC1CN(C(=O)CCC(=O)N2CCCCC2)c2cc(Cl)ccc2O1 (stereo not drawn)	19%	-22%	.	-2%	3%[46.1 µM]	18%[46.1 µM]	.	2%

Brought forward from above: 2 compounds, followed by the next part.
SMILES	StopGo reporter	NS1 function inh	Cruzain inh Det	SARS PLpro yeast	LASV entry inh	MARV entry inh	Cruzain noTriton	RE007 growth inh
CCOc1ccc(Nc2nc(Cc3nnc(SCC(=O)c4ccc(C)c(C)c4)o3)cs2)cc1	.	2%	1.9%	-4%	-25%	?	?	6%
CC1CN(C(=O)CCC(=O)N2CCCCC2)c2cc(Cl)ccc2O1 (stereo not drawn)	19%	-22%	.	-2%	3%[46.1 µM]	18%[46.1 µM]	.	2%
Cc1cc(C)n(CCc2nc(-c3ccc(C)o3)cs2)n1	24%	-6%	-2.0%	4%	-15%	-2%	-10%	-10%
CCCNC(=O)C1CC(=O)N(c2ccc(OCC(=O)Nc3cccc(C)c3C)cc2)C1 (stereo not drawn)	6%	13%	-3.2%	-3%	.	.	-4%	-7%
COc1cc(C(=O)Nc2ccc(Br)cc2C(=O)c2ccccc2)cc(OC)c1OC	6%	5%	0.3%	-1%	15%	-1%	?	11%
CCC1=NNc2cccc3c(OC)ccc1c23	.	-2%	?	-6%	.	.	?	.
CCOc1cc(S(=O)(=O)n2cc(-c3ccc(F)cc3)c(N)n2)cc(OCC)c1OCC	?	-43%	-11%	-3%	?	?	3%	14%
O=C1[C@@H]2[C@H](C(=O)N1Cc1ccco1)[C@H]1C=C[C@@H]2C1	0%	4%	-0.2%	-2%	-29%	11%	-4%	12%
CCOC(=O)Cn1c(C)cc(=O)c2cccc(C)c21	3%	-9%	-1.1%	7%	4%	9%	-13%	-4%
O=C(COC(=O)c1cnccn1)Nc1ccc(Cl)cn1	-19%	.	.	2%	10%	7%[46.1 µM]	.	29%
CC1CCN(CCCn2c(=S)[nH]c3c(sc4ccc([N+](=O)[O-])cc43)c2=O)CC1	11%	.	.	0%	.	10%[46.1 µM]	.	6%
Cc1cc(NC(=O)CN2C(=O)NC3(CCCCC3)C2=O)no1	-11%	4%	-1.6%	8%	18%	-1%[46.1 µM]	-7%	9%
CCn1cc(C(=O)NCc2cccs2)c(=O)c2cc(S(=O)(=O)N3CCOCC3)ccc21	-8%	2%	.	4%	.	.	.	6%
O=C(Nc1ccc(Cl)cn1)c1ccc2c(c1)OCCO2	-71%	-5%	.	-1%	?	?	.	-4%
CC(=O)c1ccccc1OCC(O)CN1CCN(c2ccccn2)CC1 (stereo not drawn)	-16%	19%	.	1%	4%[46.1 µM]	-5%[46.1 µM]	.	11%
CCOc1ccccc1CN1CCC(N2CCC(C(=O)NC3CC3)CC2)CC1	-6%	2%	.	4%	-2%[46.1 µM]	?	.	1%
CCOC(=O)N1CCN(S(=O)(=O)c2ccc3c(c2)CCN3C(=O)CC)CC1	-14%	-12%	1.9%	9%	28%	-4%	-1%	5%
Cc1ccc(Nc2nc(C(=O)N3CCC(C(=O)NC(C)C)CC3)cs2)cc1	1%	1%	.	0%	.	.	.	-4%
O=c1c2c3nc4ccccc4nc3n(Cc3ccccc3)c2ncn1Cc1ccco1	?	16µM*	?	-6%	-29%	-13%	?	30%
Nc1ccc(-c2nc3ccc([N+](=O)[O-])cc3[nH]2)cc1	13%	8%	-9.0%	-26%	?	?	-2%	-21%
CC(C)Cc1ccc(C(C)C(=O)Nc2cccnc2)cc1 (stereo not drawn)	-26%	-26%	.	2%	1%[46.1 µM]	?	.	-3%
CCOC(=O)c1c(CC(C)C)csc1NC(=O)C(C)C	0%	-6%	-6.9%	-4%	-3%	-18%	-1%	2%
O=C(CN1CCN(C(=O)c2cccc(-n3cnnn3)c2)CC1)Nc1ccccc1Cl	-15%	.	.	11%	0%	-2%	.	3%
Cc1ccc(S(=O)(=O)N2CCN(c3ccnc4cc(Cl)ccc34)CC2)cc1	-9%	-37%	.	0%	-22%[46.1 µM]	5µM*	.	-1%
CCOc1ccc2c(c1)nc(NCCCO)n2Cc1ccccc1	0%	5%	.	0%	-6%	-19%[46.1 µM]	.	-29%

Entries of single compounds as entered above. Order of values: StopGo reporter	NS1 function inh	Cruzain inh Det	SARS PLpro yeast	LASV entry inh	MARV entry inh	Cruzain noTriton	RE007 growth inh
`O=C(Nc1ccc(Cl)cn1)c1ccc2c(c1)OCCO2` in the list: -71%	-5%	.	-1%	?	?	.	-4%
`Nc1ccc(-c2nc3ccc([N+](=O)[O-])cc3[nH]2)cc1` in the list: 13%	8%	-9.0%	-26%	?	?	-2%	-21%
`CCC1=NNc2cccc3c(OC)ccc1c23` in the list: .	-2%	?	-6%	.	.	?	.
`O=c1c2c3nc4ccccc4nc3n(Cc3ccccc3)c2ncn1Cc1ccco1` in the list: ?	16µM*	?	-6%	-29%	-13%	?	30%
`O=C(COC(=O)c1cnccn1)Nc1ccc(Cl)cn1` in the list: -19%	.	.	2%	10%	7%[46.1 µM]	.	29%

An excerpt of these results, bar-delimited.
structure | StopGo reporter | NS1 function inh | Cruzain inh Det | SARS PLpro yeast | LASV entry inh | MARV entry inh | Cruzain noTriton | RE007 growth inh
Nc1ccc(-c2nc3ccc([N+](=O)[O-])cc3[nH]2)cc1 | 13% | 8% | -9.0% | -26% | ? | ? | -2% | -21%
O=C(CN1CCN(C(=O)c2cccc(-n3cnnn3)c2)CC1)Nc1ccccc1Cl | -15% | . | . | 11% | 0% | -2% | . | 3%

Screens (PubChem)
